Source: PubChem
Rango release inh – qHTS Assay for Inhibitors of RanGTP induced Rango (Ran-regulated importin-beta cargo) - Importin beta complex dissociation. Snurportin-1 (Homo sapiens) + GTP-binding nuclear protein Ran (Homo sapiens) + Importin …. Biochemical FRET Rango-importin beta, RanGTP-induced dissociation. Potency, µM (doses to about 46.1 µM), inactives show at the top dose activity change, negative = inhibition. actives 0.071% (n = 340,000); active means falling FRET ratio curve, often poorly fitted, with flat reads before Ran was added; inconclusive means other falling curves, or compound fluorescence or quenching; inactive means flat or rising ratio curve;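 note: potency is the fitted concentration of half-maximal effect; % of control where 0% means no effect; nearly all actives have a fitted effect of over 45% in size; -100% = wells without RanGTP and RCC1; the record marks most hits as doubtful in a second field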
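Compounds preincubate 5 min with complex of recombinant Rango and importin beta in PBS with 1 mM DTT. Ran (0.6 uM) loaded with 2 mM GTP plus 0.2 uM RCC1 starts dissociation; FRET is recorded 45 min later.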
miR-21 reporter – qHTS Assay for Modulators of miRNAs and/orActivators of miR-21. HeLa miR-21 FLuc reporter, luciferase, 48 h. Potency, µM (titrated, usually from 38.3 µM), for inactives: at the top dose reporter change, positive = more light. 340,000 tested, under 10 active. AID 2288, 2010; active = well fitted rising curve with a large enough effect; inconclusive = small, poorly fitted or top-dose-only effect; inactive = no such curve, though single readings can be large or run the other way;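 note: % of control where 0% means no effect; miR-21 action dims this reporter so a rising signal means less miR-21 action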
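HeLa miR-21-FLuc reporter line, endogenous miR-21; 2000 cells/well in DMEM/10% FBS; compound titration up to ~40uM final, 48 h, 37 degree Celsius; luciferase detection reagent, 15 min lysis, CCD luminescence.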
GLA inh pH 4.5 – qHTS Assay for Inhibitors of Human alpha-Galactosidase at pH 4.5 | Alpha-galactosidase A (Homo sapiens), P06280 | purified enzyme, 4-MU-alpha-Gal fluorescence, pH 4.5 | activity change, negative = inhibition, % at 105 µM | 230,000 tested, under 10 active; inconclusive = small, poorly fitted or top-dose-only inhibition, or a rising curve; inactive = flat fitted curve, though single readings scatter; no compound was filed as active;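 note: 0% = full activity with enzyme and -100% = basal without enzyme; dose as in the result columns while the protocol names 77 µM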
Target sequence (P06280 whole entry, looked up): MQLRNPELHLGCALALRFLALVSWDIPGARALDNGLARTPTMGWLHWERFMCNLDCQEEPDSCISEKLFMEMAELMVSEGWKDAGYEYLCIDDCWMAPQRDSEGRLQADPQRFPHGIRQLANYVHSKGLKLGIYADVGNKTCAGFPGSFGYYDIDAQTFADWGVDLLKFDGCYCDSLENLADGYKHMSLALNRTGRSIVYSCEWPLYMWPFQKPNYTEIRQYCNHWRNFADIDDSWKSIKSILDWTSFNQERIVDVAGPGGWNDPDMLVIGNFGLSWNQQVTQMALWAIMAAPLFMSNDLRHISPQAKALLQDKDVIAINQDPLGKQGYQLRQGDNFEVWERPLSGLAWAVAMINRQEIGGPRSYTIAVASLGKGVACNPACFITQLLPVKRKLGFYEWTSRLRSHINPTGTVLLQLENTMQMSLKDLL
Rango complex inh – qHTS Assay for Inhibitors of Rango (Ran-regulated importin-beta cargo) - Importin beta complex formation. Importin subunit beta-1 (Homo sapiens), Q14974. Rango CFP/YFP FRET sensor + importin beta, 45 min. Potency, µM (highest dose often 92.2 µM), inactives show top-dose inhibition of complex formation. actives 0.031% (n = 340,000); active = rising FRET ratio curve, often small or poorly fitted; inconclusive = mostly compound fluorescence or quenching in the first reads; inactive = flat curves in all reads;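 note: potency is the fitted concentration of half-maximal effect; 0% = DMSO wells and 100% = buffer wells lacking importin beta; nearly all actives have a fitted effect of over 15% in size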
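Inhibition scored from the CFP 486 nm/YFP 530 nm FRET ratio 45 min after adding 0.125 microM importin beta to 50 nM Rango biosensor preincubated 5 min with compound (room temperature, PBS with DTT, Tween-20, BSA). No-importin wells as positive control.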
Numbers without * were called inactive; & = joins results of further samples. Only part of the results is shown (hit frequency here may not be typical).

How did Cn1c(=O)n(C)c2cc(N3CCCCC3)c(NC(=O)c3ccccc3)cc21 do in these assays?
Rango release inh: -0.5%; miR-21 reporter: 0.0%; Rango complex inh: -2.1%

Results for CSC1=C(C#N)C(c2ccccc2Cl)C2=C(CCCC2=O)N1 (centres undefined) ?
miR-21 reporter: 9.7%; GLA inh pH 4.5: -2.9

How did COC(=O)[C@]1(C)N[C@H](CN(C)S(=O)(=O)c2ccc(C)cc2)[C@@H]2C(=O)N(Cc3ccccc3)C(=O)[C@@H]21 do in these assays?
Rango release inh: -2.8%; Rango complex inh: 1.3%

What do the screens show for `CCCC(=O)NC(=S)Nc1cc(-c2nc3ncccc3o2)ccc1C`?
Rango release inh: -12.0%; miR-21 reporter: -0.6%; GLA inh pH 4.5: 4.1; Rango complex inh: -1.0%

What do the screens show for `COc1ccc(-n2c(-c3ccc(Br)cc3)c[n+]3c2CCc2ccccc2-3)cc1`?
Rango release inh: -16.1%; miR-21 reporter: inconclusive; GLA inh pH 4.5: -0.4; Rango complex inh: 6.7%

How did O=C1CC(c2ccccc2)n2nc(NC(=O)C3CCCO3)nc2N1 (centres undefined) do in these assays?
Rango release inh: 0.5%; miR-21 reporter: -4.7%; GLA inh pH 4.5: -0.7; Rango complex inh: -1.7%

What do the screens show for `COc1ccc(NC(=O)C(=O)NCCC2CCCCN2S(=O)(=O)c2ccc(F)cc2)cc1` (centres undefined)?
Rango release inh: -1.7%; Rango complex inh: 0.4%

What do the screens show for `CC12CC3(C)CC(C)(C1)CC(C(=O)NC1=NCCS1)(C2)C3`?
Rango release inh: 23.4%; Rango complex inh: -2.6%

What do the screens show for `CC(C)Nc1nc(Cl)nc(N(C#N)CN2C(=O)c3ccccc3C2=O)n1`?
Rango release inh: -9.5%; miR-21 reporter: 0.0%; GLA inh pH 4.5: 0.9; Rango complex inh: 1.5%

Results for CCN(C(=O)COC(=O)c1ccc(-n2c(C)ccc2C)cc1)c1c(N)n(Cc2ccccc2)c(=O)[nH]c1=O ?
Rango release inh: -16.7%; Rango complex inh: inconclusive

How did O=C(Nc1ccc2c(c1)nc1n2CCSC1)c1ccccc1 do in these assays?
Rango release inh: -11.5%; miR-21 reporter: -25.3%; GLA inh pH 4.5: -6.1; Rango complex inh: inconclusive

Results for Oc1ccc(/C=N/Nc2cccc3cccnc23)c(O)c1 ?
Rango release inh: -13.7%; miR-21 reporter: -43.2%; GLA inh pH 4.5: -1.3; Rango complex inh: inconclusive

Results for Cc1ccccc1C(=O)Oc1ccc(Cl)cc1C(=S)N1CCOCC1 ?
Rango release inh: -0.7%; miR-21 reporter: -7.4%; Rango complex inh: 0.3%

How did O=C(O)CCn1nc(-c2ccc(F)cc2)cc(Cc2ccccc2)c1=O do in these assays?
Rango release inh: 0.1%; miR-21 reporter: -7.6%; Rango complex inh: -0.2%

What do the screens show for `CCOC(=O)c1cnc(SCc2nc(N)nc(Nc3ccc(OC)cc3)n2)nc1N`?
Rango release inh: -9.5%; miR-21 reporter: -18.1%; GLA inh pH 4.5: -10.4; Rango complex inh: -0.3%

Results for CC(=O)c1cccc(NC(=O)Nc2cc3sccc3n2C)c1 ?
miR-21 reporter: 2.0%; GLA inh pH 4.5: 2.0

Results for CCN1CCN(C(=O)c2cc(-c3ccco3)nc3ccccc23)CC1 ?
Rango release inh: 13.9%; Rango complex inh: 0.7%

How did Cc1ccc2cc(CN(Cc3ccco3)C(=O)NC3CCCCC3)c(=O)[nH]c2c1C do in these assays?
Rango release inh: -13.9%; miR-21 reporter: -6.1%; GLA inh pH 4.5: -12.6; Rango complex inh: 0.6%

Results for Cc1ccccc1OCC(=O)OCC(=O)Nc1cc(S(C)(=O)=O)ccc1Cl ?
Rango release inh: 3.6%; Rango complex inh: -1.0%

What do the screens show for `Cc1ccc(C(C)C)c(OCC(=O)NN=C(CCl)CCl)c1`?
miR-21 reporter: -6.8%; GLA inh pH 4.5: -3.3

Results for Cc1ccc2nc(C3CCCN(C(=O)NCc4ccccc4)C3)[nH]c2c1 (centres undefined) ?
Rango release inh: -0.1%; miR-21 reporter: -24.4%; GLA inh pH 4.5: 0.7; Rango complex inh: inconclusive

How did N#Cc1cccc(CSc2nnc(CCCO)n2-c2ccccc2)c1 do in these assays?
Rango release inh: 16.0%; miR-21 reporter: -4.6%; GLA inh pH 4.5: 0.7; Rango complex inh: -0.6%

What do the screens show for `O=C(COc1ccccc1F)Nc1ccc(S(=O)(=O)N2CCCC2)cc1`?
Rango release inh: -9.2%; Rango complex inh: inconclusive

What do the screens show for `CCOc1cc(N2CCOCC2)c(OCC)cc1NC(=O)COC(=O)c1cc(C)cc(C)c1`?
Rango release inh: 5.8%; miR-21 reporter: -1.3%; GLA inh pH 4.5: -5.5; Rango complex inh: 1.5%

What do the screens show for `c1ccc(-c2ccc3sccc3n2)cc1`?
Rango release inh: -1.3%; Rango complex inh: -2.2%

Results for O=C(NCCc1nnc2ccc(SCC(=O)N3CCCC3)nn12)c1ccc(F)cc1 ?
Rango release inh: -0.3%; miR-21 reporter: 2.3%; Rango complex inh: 1.2%

How did C/C(Cl)=C\Cn1c(O)c(N=NC(N)=S)c2ccccc21 do in these assays?
Rango release inh: -0.1%; miR-21 reporter: 3.4%; GLA inh pH 4.5: -6.9; Rango complex inh: -1.1%

How did CCOC(=O)C1CCN(C(=O)COC(=O)COc2ccccc2OC)CC1 do in these assays?
Rango release inh: inconclusive; miR-21 reporter: -3.5%; GLA inh pH 4.5: 2.5; Rango complex inh: -3.6%

What do the screens show for `O=[N+]([O-])c1ccccc1S(=O)(=O)NC1CCCC1`?
Rango release inh: 0.2%; miR-21 reporter: 3.8%; GLA inh pH 4.5: 3.7; Rango complex inh: 4.5%

Results for COc1ccc(CCNS(=O)(=O)c2cc3c4c(c2)CC(=O)N4CCC3)cc1 ?
Rango release inh: -3.7%; miR-21 reporter: -3.5%; Rango complex inh: -0.5%

How did O=c1cc(CSc2nnc(-c3ccccc3)o2)c2ccccc2[nH]1 do in these assays?
Rango release inh: -14.9%; miR-21 reporter: -5.8%; GLA inh pH 4.5: -0.7; Rango complex inh: 1.7%

How did O=C(CSc1nc(O)c(C2CCCCC2)c(=O)[nH]1)N1CCOCC1 do in these assays?
Rango release inh: 10.1%; miR-21 reporter: 1.2%; GLA inh pH 4.5: -8.8; Rango complex inh: 4.4%

What do the screens show for `Cc1csc(NC(=O)C2CCN(S(=O)(=O)c3ccccc3)CC2)n1`?
Rango release inh: 9.7%; Rango complex inh: 1.6%

Results for C=CCNc1ncnc2c1cnn2-c1ccc(C)cc1C ?
Rango release inh: 39.8%; miR-21 reporter: -26.9%; GLA inh pH 4.5: 3.4; Rango complex inh: 0.0%

How did CCc1cccc(C)c1NS(=O)(=O)c1c(C)nc2sccn2c1=O do in these assays?
Rango release inh: 7.1%; miR-21 reporter: 4.6%&-0.2%; Rango complex inh: 7.9%

Results for NNc1ccccc1C(F)(F)F ?
Rango release inh: -10.6%; miR-21 reporter: -6.5%; GLA inh pH 4.5: -26.6; Rango complex inh: 0.3%

How did CCCn1c2ccccc2c2nnc(SCC(=O)Nc3c(C)n(C)n(-c4ccccc4)c3=O)nc21 do in these assays?
Rango release inh: 1.8%; miR-21 reporter: -9.9%; GLA inh pH 4.5: -1.8; Rango complex inh: -0.3%

How did Cc1ccc(C(=O)NCN2CCN(c3ccc(F)cc3)CC2)cc1 do in these assays?
Rango release inh: -13.5%; Rango complex inh: -1.1%

How did Cc1[nH]c2ccccc2c1C(C[N+](=O)[O-])c1cccs1 (centres undefined) do in these assays?
Rango release inh: -12.8%; miR-21 reporter: 5.8%; GLA inh pH 4.5: -6.0; Rango complex inh: 0.9%

What do the screens show for `CCN1CCN(CCC(=O)Nc2cccc(C)c2)CC1`?
Rango release inh: 25.2%; miR-21 reporter: 0.2%; Rango complex inh: 4.5%

Results for S=C1NCC(c2ccccc2)S1 (centres undefined) ?
Rango release inh: -3.8%; Rango complex inh: -3.0%

What do the screens show for `Cc1ccc(NC(=O)C2CC3CCC2C3)c(Br)c1` (centres undefined)?
Rango release inh: 30.1%; miR-21 reporter: -45.6%; Rango complex inh: 1.2%

How did CNc1snc(C)c1C(=O)OC(C)C(=O)NCc1ccccc1 (centres undefined) do in these assays?
Rango release inh: -0.6%; Rango complex inh: -0.4%

Results for O=C(Cc1cccc(NC(=O)C2CCN(S(=O)(=O)c3cccc([N+](=O)[O-])c3)CC2)c1)Nc1cccc(C(=O)N2CCCCC2)c1 ?
Rango release inh: 0.4%; Rango complex inh: 4.8%

What do the screens show for `S=C(NCCNC(=S)Nc1ccccc1)Nc1ccccc1`?
Rango release inh: 2.0%; miR-21 reporter: -1.2%; Rango complex inh: -0.2%

What do the screens show for `CC1(c2ccc3ccccc3c2)NC(=O)N(CC(=O)N2CCCC(C(F)(F)F)C2)C1=O` (centres undefined)?
Rango release inh: 8.9%; Rango complex inh: -1.0%

Results for CCC(=O)Nc1c(C)ccc2nsnc12 ?
Rango release inh: 2.4%; miR-21 reporter: -3.4%; GLA inh pH 4.5: 3.9; Rango complex inh: 0.0%

How did COc1ccc(-c2cn(CCCOCc3ccccc3)nn2)cc1 do in these assays?
Rango release inh: -0.3%; miR-21 reporter: -8.3%; Rango complex inh: 0.1%

Molecules listed so far that contain a CF3 group, in the order listed:
Results for NNc1ccccc1C(F)(F)F ?
Rango release inh: -10.6%; miR-21 reporter: -6.5%; GLA inh pH 4.5: -26.6; Rango complex inh: 0.3%

What do the screens show for `CC1(c2ccc3ccccc3c2)NC(=O)N(CC(=O)N2CCCC(C(F)(F)F)C2)C1=O` (centres undefined)?
Rango release inh: 8.9%; Rango complex inh: -1.0%

Continuation:
Results for COc1ccc(CCNC(=O)C(=O)Nc2ccc3c(c2)OCO3)cc1OC ?
Rango release inh: 4.1%; miR-21 reporter: -10.0%; GLA inh pH 4.5: -3.5; Rango complex inh: 0.8%

What do the screens show for `COCCCNC(=O)CNC(=O)c1cn(-c2ccccc2OC)c(=O)c2ccccc12`?
Rango release inh: 22.9%; miR-21 reporter: 4.0%; GLA inh pH 4.5: 2.4; Rango complex inh: -3.5%

What do the screens show for `CCN(CC)C(=O)/C(=C/c1ccc2c(c1)OCO2)NC(=O)c1ccc(Br)cc1`?
Rango release inh: -12.7%; miR-21 reporter: -6.7%; GLA inh pH 4.5: -6.1; Rango complex inh: inconclusive

What do the screens show for `COc1ccccc1N1CCN(C(=O)c2cccs2)CC1`?
Rango release inh: 26.4%; miR-21 reporter: -5.8%; Rango complex inh: -1.8%

Results for CCOc1ccc(-c2nc3n(c(=O)c2C#N)CCS3)cc1 ?
Rango release inh: 7.1%; miR-21 reporter: -1.4%; GLA inh pH 4.5: 1.3; Rango complex inh: -0.1%

What do the screens show for `COc1ccc(-c2nc3ccccc3n2OCC(=O)O)cc1`?
Rango release inh: 0.9%; miR-21 reporter: -1.2%; GLA inh pH 4.5: -1.6; Rango complex inh: 0.7%

What do the screens show for `CC(C)(C)c1cnnn1-c1ccc(/C=N/Nc2ccc([N+](=O)[O-])cc2)cc1`?
Rango release inh: inconclusive; miR-21 reporter: -4.8%; GLA inh pH 4.5: -10.3; Rango complex inh: inconclusive

What do the screens show for `CS(=O)(=O)NCC(c1cccnc1)N1CCN(c2ccc(F)cc2)CC1` (centres undefined)?
Rango release inh: -2.5%; miR-21 reporter: -6.4%; GLA inh pH 4.5: -10.8; Rango complex inh: -0.3%

How did COc1ccc2nc(/C(C#N)=C\c3ccc(C(=O)O)cc3)[nH]c2c1 do in these assays?
Rango release inh: inconclusive; miR-21 reporter: -9.2%; GLA inh pH 4.5: -10.3; Rango complex inh: inconclusive

What do the screens show for `O=C(c1ccccc1)N1N=C(c2ccccc2)CC1(O)C(F)(F)F` (centres undefined)?
Rango release inh: 15.8%; miR-21 reporter: -7.1%; Rango complex inh: 2.6%
